Beta cell apopt – blocks beta cell apoptosis | INS-1E cytokine-induced death, ATP luminescence, 48 h; percent of positive-control rescue, neutral wells zero | protection from apoptosis, % (concentration not given with the values) | 300,000 tested, 0.8% active | AID 435005;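 active = all replicates at 75% or more, or half of them and the mean; inconclusive = half reach 75% but not the mean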;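 note: 0% = cytokine-treated negative control wells and 100% = positive control rescue; higher means more ATP so stronger rescue from cytokine killing; wells of about 40 µL received 100 nL stock; the first replicate is given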
A1 inh – inhibitors of the anti-apoptotic protein A1, read as caspase activation. MEF A1-2A-BIM cells, Caspase-Glo 3/7 luminescence, 3 h; percent of clofoctol response, vehicle zero. caspase activation, % (no concentration beside the values). AID 2462. 330,000 tested, 0.066% active;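 active = over half of replicate activation scores above 10%, or exactly half above 10 with the replicate mean above 10; inconclusive = replicate mean below 10 yet half the replicates above 10; inactive = over half of replicates below 10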;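 note: wells of about 30 µL received 50 nL stock; many hits fall short of the cut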
T cruzi repl – T. cruzi replication inhibition; T. cruzi beta-gal in NIH3T3, luminescence, 90 h; inhibition, % (concentration not given with the values); 300,000 tested, 1.4% active; AID 1885;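 active = mean inhibition across valid replicates above about 55%, limit read from the data; inconclusive = mean below that limit but half or more replicates reach it; inactive = mean below it, under half of replicates reach it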;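 note: signal also drops with host cell toxicity which is not excluded here; 0% = plate median of DMSO wells and 100% = zero luminescence signal; higher percent means less beta-gal luminescence so fewer parasites; stock transfer was 50 nL into about 50 µL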
Vif TR-FRET – HIV-1 Vif–A3G interaction blockers – biochemical, TR-FRET, GST-Vif 1-94, biotin-A3G peptide, dose response retest, primary screen (AID 1117319); TR-FRET GST-Vif / biotin-A3G peptide binding; higher % means a stronger effect; test concentration not given here; strong numbers were not always called active; inhibition, %; hits with a dose series show IC50 in µM; 260,000 tested, 0.57% active;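 active = above the screen mean plus three standard deviations and confirmed in dose response; inconclusive = results disagree or hit not tested in dose response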;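 note: Vif residues 1-94 fused to GST binding biotinylated APOBEC3G peptide 110-148; 0% = full assay without inhibitor and 100% = GST in place of GST-Vif; retest series ran down from 100 µM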
LANA-H2B inh – blocks KSHV LANA binding to histone H2A/H2B. Q9QR71. 320,000 tested, 0.6% active. AID 2629. inhibition, % (no concentration beside the values). cell-free LANA-H2A/H2B peptide, fluorescence polarization; in the data active = inhibition mostly above about 10%, no sharp cut-off; inactive = mostly below about 6.7%;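 note: stock transfer was 7.5 nL into about 10 µL; 0% = median of vehicle wells and 100% = median of positive control wells; one replicate is shown; the record names a cut of 25% in any replicate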
MLL AF4-AF9 inh – blocks AF4 peptide binding to human AF9; 350,000 tested, 0.47% active; AlphaScreen, biotin-AF4 peptide binding to FLAG-AF9; AID 651704; inhibition, % at 10 µM;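 active = every replicate reaching a set inhibition limit, whatever the replicate mean, cut at about 25% in these data; inconclusive = mean inhibition reaches that limit but some replicates miss it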;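 note: 0% = plate neutral control median and 100% = total signal loss; the record names both 10 and 1 µM as test concentration; the first replicate is given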
Target sequence (P42568 whole entry, looked up): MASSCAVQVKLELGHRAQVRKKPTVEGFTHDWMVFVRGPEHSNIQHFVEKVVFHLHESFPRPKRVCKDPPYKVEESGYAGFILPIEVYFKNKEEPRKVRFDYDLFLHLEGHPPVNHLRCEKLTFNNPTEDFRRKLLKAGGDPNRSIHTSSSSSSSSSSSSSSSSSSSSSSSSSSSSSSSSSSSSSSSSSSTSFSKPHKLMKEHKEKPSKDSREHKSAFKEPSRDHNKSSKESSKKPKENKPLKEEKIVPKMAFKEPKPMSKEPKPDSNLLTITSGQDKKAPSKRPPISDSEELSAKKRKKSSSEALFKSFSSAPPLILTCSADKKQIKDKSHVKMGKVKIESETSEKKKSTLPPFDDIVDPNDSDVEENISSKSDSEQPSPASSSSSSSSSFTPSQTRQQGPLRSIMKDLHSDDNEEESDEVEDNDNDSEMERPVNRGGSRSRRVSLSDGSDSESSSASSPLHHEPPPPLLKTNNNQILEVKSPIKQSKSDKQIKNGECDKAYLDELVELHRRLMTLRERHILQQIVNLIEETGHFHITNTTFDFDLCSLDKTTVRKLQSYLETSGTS
RanGTP-Impb inh – disruptors of Ran-importin-beta complex formation – biochemical, FRET, CFP-Ran, YFP-importin-beta, homogeneous, primary screen; cell-free CFP-Ran/YFP-importin-beta FRET ratio; inhibition, % (test concentration not listed); 300,000 tested, 1.1% active; AID 2216;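 active = most replicates above 15%; inconclusive = exactly half above 15%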;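 note: 0% = DMSO wells and 100% = Ran loaded with GDP instead of GTP; wells of about 40 µL received 100 nL stock; the first replicate is given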
Calb FLC – affects C. albicans growth with fluconazole. C. albicans CaCi-2 (fluconazole-resistant clinical isolate) + fluconazole, Alamar Blue growth, 48 h. 300,000 tested, 0.57% active. growth inhibition, % (concentration not given with the values);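 active = most replicates above 75%; inconclusive = exactly half above 75%; inactive = most below 75%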;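 note: all wells also contain fluconazole at 8 µg/ml as a sub-toxic cotreatment; 0% = median of DMSO wells and 100% = median of geldanamycin control wells; wells of about 8 µL received 7.5 nL stock; the first replicate is given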
Starred values were filed as active, the others as inactive; ? = inconclusive; . = no result given; & = joins results of further samples. Compounds as they come; 4.3% or so of the library scored in one or more.

SMILES | Beta cell apopt | A1 inh | T cruzi repl | Vif TR-FRET | LANA-H2B inh | MLL AF4-AF9 inh | RanGTP-Impb inh | Calb FLC
COCc1nnc(NC(=O)c2ccc3c(c2)OCO3)s1 | 0 | 0.3 | -9 | 8% | 6.3 | -0.8 | 1.2 | -14
Cc1ccc(-n2c(SCC(N)=O)nnc2-c2cnccn2)cc1 | 0 | 0.9 | -7 | -7% | 3.8 | -18 | -1.4 | -5
CCN1C(=O)C(CC(=O)NC)N(NC(=O)c2ccccc2)C1=S (stereo not drawn) | -7 | 0.8 | -6 | . | 5.0 | . | 0.9 | -3
CCOC(=O)N1CCN(c2nc3c(c(=O)[nH]c(=O)n3C)n2Cc2ccccc2Cl)CC1 | . | . | -6 | -3% | . | . | -3.9 | -12
COC(=O)Cc1cc(=O)n2c(nc3ccccc32)[nH]1 | -2 | 0.5 | -24 | 2% | -3.4 | 2.7 | 0.0 | 6
COc1cccc(CNC(=O)CCNC(=O)c2ccco2)c1 | -4 | 1.3 | -6 | 2% | -0.8 | -15 | 0.5 | 1
CNC(=O)CCc1ccc(OC)cc1 | -3 | -0.3 | -14 | 6% | -4.9 | -8.0 | -0.6 | 2
O=C1c2ccccc2C(=O)N1CCCC(=O)N1CCc2ccccc21 | -5 | 0.3 | -16 | 12% | 9.9 | . | -1.1 | 1
CC(=O)Nc1ccc(S(=O)(=O)NNC(=O)c2cccc(Br)c2)cc1 | 1 | 0.6 | -1 | 12% | -0.7 | -10 | 2.0 | 2
O=C(COc1ccc(Cl)cc1Cl)N1CCCN(C(=O)COc2ccc(Cl)cc2Cl)CC1 | 17 | 1.3 | 60* | 0% | -1.5 | . | -1.6 | 93*
Cc1[nH]c2ccccc2c1C(=O)CN1CCC(C)CC1 | 12 | -0.5 | 7 | -2% | -2.0 | . | 0.0 | -8
CCOc1ccc(/C(C)=N/NC(=O)Cn2nc([N+](=O)[O-])cc2C)cc1 | -3 | 0.5 | 6 | -9% | 8.5 | -1.6 | 2.9 | 5

Some entries already given, showing only RanGTP-Impb inh:
| canonical_smiles | RanGTP-Impb inh |
| --- | --- |
| CCOC(=O)N1CCN(c2nc3c(c(=O)[nH]c(=O)n3C)n2Cc2ccccc2Cl)CC1 | -3.9 |
| Cc1[nH]c2ccccc2c1C(=O)CN1CCC(C)CC1 | 0.0 |
| COC(=O)Cc1cc(=O)n2c(nc3ccccc32)[nH]1 | 0.0 |
| CCOc1ccc(/C(C)=N/NC(=O)Cn2nc([N+](=O)[O-])cc2C)cc1 | 2.9 |
| O=C1c2ccccc2C(=O)N1CCCC(=O)N1CCc2ccccc21 | -1.1 |

Next section:
SMILES | Beta cell apopt | A1 inh | T cruzi repl | Vif TR-FRET | LANA-H2B inh | MLL AF4-AF9 inh | RanGTP-Impb inh | Calb FLC
CC1(C)O[C@@H]2CC3C4C[C@H](F)C5=CC(=O)C=CC5(C)C4C(O)CC3(C)[C@]2(C(=O)CO)O1 (stereo partly drawn) | -1 | -0.5 | 6 | . | -1.0 | 7.7 | -5.0 | 3
O=C(NCCCN1CCCC1=O)Nc1ccc([N+](=O)[O-])cc1 | 5 | -0.4 | -4 | -8% | 0.4 | -2.6 | 11 | -3
CC(=O)NC(Cc1ccccc1F)C(=O)NC1CCN(C(=O)c2cnccn2)CC1 (stereo not drawn) | -5 | -1.3 | -26 | 0% | 6.3 | . | -1.9 | 11
Cn1ncc(Br)c1C(=O)NC1CCCC1 | -2 | 1.8 | -9 | -3% | 2.7 | -0.2 | -2.2 | 0
O=C(Cc1ccccc1)NCC(=O)Nc1cccc(Cl)c1 | . | 2.7 | -5 | . | 1.9 | -0.5 | 3.7 | -3
COc1ccc(OCC(=O)NCC(c2cccs2)N2CCOCC2)cc1 (stereo not drawn) | -1 | 0.0 | 9 | -2% | -1.7 | -3.2 | -3.3 | 0
COc1ccccc1N1CC(C(=O)Nc2nnc(SCC(=O)NCC3CCCO3)s2)CC1=O (stereo not drawn) | -7 | 0.7 | -1 | -3% | 1.6 | -1.2 | -1.7 | -5
CC12CCC(c3n[nH]c(=S)nc31)C2(C)C (stereo not drawn) | -4 | -0.3 | -41 | 12% | -2.4 | . | 7.3 | 0
Cc1sc(NC(=O)c2ccccc2)c(C#N)c1-c1ccccc1 | 10 | -3.7 | 9 | . | -0.5 | . | 39* | 32
CS(=O)(=O)N1CCN(c2cnn(-c3ccccc3)c(=O)c2Cl)CC1 | -6 | 1.2 | -8 | 7% | 0.4 | -3.6 | 2.7 | ?
O=C(O)CCCn1nc(C(F)(F)F)c2c1CCCCC2 | . | -0.5 | -2 | -4% | 0.1 | . | 5.7 | 22
O=C1C2C3C=CC(C3)C2C(=O)N1c1ccc(S(=O)(=O)Nc2nccs2)cc1 (stereo not drawn) | -4 | 0.9 | -1 | 11% | -1.7 | 0.7 | -1.4 | -5
O=C(Nc1cnn(Cc2c(Cl)cccc2Cl)c1)C(c1ccccc1)c1ccccc1 | 20 | 0.9 | 55* | 2% | -2.6 | . | -0.7 | -2
Cc1ccc(N(C)C(=O)C2CCCN2S(=O)(=O)c2ccc3c(c2)n(C)c(=O)c(=O)n3C)cc1 (stereo not drawn) | -1 | 0.4 | 10 | 2% | 8.6 | -4.6 | -0.8 | -6
O=C(CSc1ccccn1)N1CCCC(Nc2ccc(F)c(F)c2)C1 (stereo not drawn) | 4 | 0.3 | 17 | 10% | -8.3 | 0.5 | 2.6 | -7
CCC(C)c1ccc(-n2c(=O)c3ccccc3n3c(=S)[nH]nc23)cc1 (stereo not drawn) | 2 | -1.0 | -4 | . | 1.3 | 0.0 | -0.3 | 1
CCCN1CCN(C(=O)c2cc(COc3ccc(F)c(F)c3)on2)CC1 | -3 | 0.3 | 6 | . | -1.3 | -2.1 | 0.8 | -5
CCOc1cc(/C=N/NC(=O)c2cccs2)ccc1OC(=O)N1CCOCC1 | 2 | 0.2 | -8 | . | -3.2 | . | 4.5 | -25
Cc1c(Cl)c(C(F)(F)F)nn1CC(=O)NN | 2 | -0.3 | -12 | 1% | 0.7 | -2.3 | 2.2 | -9
O=C(CCN1CCCCO1)N1CCCC(N2CCN(c3ccc(F)cc3)CC2)C1 (stereo not drawn) | 2 | 2.3 | -3 | . | 13* | -3.8 | 0.9 | 22
CC(=O)c1ccc2c(c1)OCCOCCOc1ccccc1OCCOCCO2 | 0 | 0.5 | -1 | . | 2.1 | -1.5 | 6.7 | -12
CCN(Cc1ccccc1)S(=O)(=O)c1ccc(C(=O)Nc2nnc(-c3ccccc3OC)o2)cc1 | 11 | 0.3 | 62* | -4% | -0.7 | . | 4.4 | 83*
COc1ccc(CCNC(=O)c2ccc(NS(=O)(=O)c3c(C)noc3C)cc2)cc1OC | 0 | 0.4 | -4 | -8% | 4.3 | . | -2.5 | 0
COCc1cc(C)n(CC(=O)NC(C)c2ccccc2)c(=O)c1C#N (stereo not drawn) | . | 0.1 | -5 | -12% | 1.7 | . | 9.3 | -6

Brought forward from above: 2 compounds, followed by the next part.
SMILES | Beta cell apopt | A1 inh | T cruzi repl | Vif TR-FRET | LANA-H2B inh | MLL AF4-AF9 inh | RanGTP-Impb inh | Calb FLC
COc1ccc(CCNC(=O)c2ccc(NS(=O)(=O)c3c(C)noc3C)cc2)cc1OC | 0 | 0.4 | -4 | -8% | 4.3 | . | -2.5 | 0
COCc1cc(C)n(CC(=O)NC(C)c2ccccc2)c(=O)c1C#N (stereo not drawn) | . | 0.1 | -5 | -12% | 1.7 | . | 9.3 | -6
O=C(NCC(=O)N(Cc1ccccc1)C(C(=O)NC1CCCC1)c1ccco1)c1ccco1 (stereo not drawn) | -1 | -0.7 | 6 | 9% | 3.8 | . | 5.2 | -6
COc1ccc(Cn2nnnc2CN2CCC(O)(c3ccc(F)cc3)CC2)cc1 | -1 | 0.6 | 2 | -2% | -1.5 | -2.8 | 3.8 | 0
C(=N\N1CCN(Cc2ccccc2)CC1)/c1cccs1 | -7 | 1.0 | -8 | 2% | 4.3 | . | 3.3 | 7
C#CC[N+](C)(C)CC#Cc1ccccc1 | . | -0.4 | 12 | . | -4.1 | -1.0 | 1.0 | -13
Cc1ccccc1-n1c(=O)n(Cc2ccco2)c(=O)c2[nH]cnc21 | 3 | 1.2 | 0 | 1% | -7.7 | -2.3 | -0.1 | 3
COc1cc(NC(=O)c2ccc([N+](=O)[O-])o2)ccc1NC(=O)c1ccco1 | 18 | 0.2 | 30 | . | -0.3 | 0.6 | -3.9 | .
CCc1sc(-c2c(C#N)c(N)nc3c2CCCCCC3)cc1[N+](=O)[O-] | . | 0.5 | 25 | -4% | -2.1 | . | -2.4 | 5
O=C(O)CSc1nc(-c2ccccc2)c(-c2ccccc2)[nH]1 | 6 | 1.8 | -16 | 10% | 0.5 | 15 | 1.0 | 6
Cc1cc(C)n2nc(C(=O)OCC(=O)N(CC(C)C)CC(C)C)nc2n1 | -3 | 0.4 | -16 | . | -4.8 | -2.9 | -0.5 | 10
Cc1ccccc1S(=O)(=O)N1CCN(C)CC1 | -1 | -0.3 | -10 | . | -2.7 | 0.7 | 2.9 | -10
CCOC(=O)c1nnn(-c2nonc2N)c1CN(C)C1CCCCC1 | -2 | 0.2 | . | 7% | -0.6 | . | 7.4 | 2
O=C(CN1C(=O)c2ccccc2S1(=O)=O)Nc1ccc([N+](=O)[O-])cc1 | -2 | -0.2 | . | . | 4.3 | 5.5 | . | .
CC1=CC(C)C2C(=O)N(c3ccccc3)C(=O)C2C1 (stereo not drawn) | -7 | -0.2 | -11 | 16% | 0.7 | -1.7 | 1.4 | 3
CCOC(=O)C(C(=O)Nc1ccccn1)C1CCCCC1 (stereo not drawn) | -3 | 0.9 | -10 | ? | 2.8 | . | 4.2 | -7
CCCCN1CCc2[nH]c(=S)[nH]c(=O)c2C1 | 1 | 0.3 | -11 | . | -6.3 | . | -1.3 | 2
C[C@@H]1CN([C@H](C)CO)C(=O)c2cccc(NC(=O)c3ccncc3)c2O[C@@H]1CN(C)Cc1ccc(C(=O)O)cc1 | 1 | 0.1 | . | . | -4.8 | -1.6&0.4 | . | .
Cc1cc(=O)oc2cc(OCC(=O)Nc3nnc(CC(C)C)s3)ccc12 | -3 | -1.5 | 1 | -9% | 6.5 | . | -1.6 | 25
CCC(CC)C(=O)Nc1cc(C)cc(C)c1 | -2 | 0.4 | -11 | 16% | -6.2 | . | 0.4 | 4
CCCn1nc(C(=O)Nc2cccc(C(=O)OC)c2)c2ccccc2c1=O | 1 | 0.1 | 6 | 0% | 3.0 | . | 5.7 | 1
Cc1ccc(-c2nnn(CC(=O)N(CCO)C(C(=O)NC3CCCCC3)c3ccncc3)n2)o1 (stereo not drawn) | -1 | 0.5 | 6 | 12% | 2.3 | -9.5 | 1.1 | -4
COc1cccc(-n2c(SCC(=O)Nc3nccs3)nnc2-c2ccoc2C)c1 | -3 | 0.7 | 13 | -6% | -2.0 | . | 2.0 | 27
CS(=O)(=O)N1CCN(C/C=C/c2ccccc2)CC1 | -2 | 0.0 | -1 | 0% | -1.8 | . | 0.8 | 6
COc1cccc(/C=N/NC(=O)CCc2c(C)n[nH]c2C)c1O | -4 | 0.7 | -8 | 4% | -0.3 | -0.6 | -2.3 | -8
